Screens as filed in PubChem BioAssay.
Sfp PPTase inh: qHTS Assay for Inhibitors of Bacillus subtilis Sfp phosphopantetheinyl transferase (PPTase). 4'-phosphopantetheinyl transferase ffp (Bacillus subtilis), Q9F4F7. actives 3.5% (n = 310,000). Biochemical Sfp PPTase activity, qHTS. Potency, µM, inactives show max response, negative = inhibition, usual class: inhibitors; active means well fitted inhibition curve with a large enough effect; inconclusive means small, poorly fitted or top-dose-only effect, or another doubt; inactive means no such curve, though single readings can be large or run the other way;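 further: the enzyme is Sfp with the accession as filed and its product quenches rhodamine fluorescence; potency means the concentration at half of the fitted maximal effect; 0% = enzyme reaction without inhibitor and -100% = no enzyme wells; top concentration of the series not given in the record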
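With Hepes-Na pH 7.6 buffer containing 10 mM MgCl2, Sfp (15 nM) modified BHQ-2-YbbR (12.5 uM) using rhodamine-CoA (5 uM). Two reads 30 minutes apart at 525/598 nm yielded each well's rate.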
Menin MLL FP FL: qHTS Assay for Inhibitors Targeting the Menin-MLL Interaction in MLL Related Leukemias: Competition With Fluorescein Labeled MLL-derived Peptide; Fluorescence polarization, fluorescein-MLL peptide displacement from menin; 290,000 tested, under 10 active; FP activity change, % at 61.4 µM; AID 1766, 2009; inconclusive = falling polarisation curve, or a change in total fluorescence; inactive = total fluorescence flat and polarisation flat or rising; no compound was filed as active; the % refers to the polarisation; negative = inhibition;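 further: % of control where 0% means no effect; inhibitors lower the polarisation; unlabelled MLL peptide was the positive control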
TRPV1 potentiator: HTS Assay for Compounds that Act as Potentiators of the Vanilloid Receptor 1; Transient receptor potential cation channel subfamily V member 1 (Homo sapiens), Q8NER1; potentiation, % at 8.33 µM; AID 540277, 2011; TRPV1-expressing cells, Fluo-8 calcium influx, capsaicin EC20 potentiation; host cell line not named in the record; control for the full effect not named in the record; actives 0.02% (n = 320,000); active means potentiation above 80%; inconclusive means 30% to 80%; inactive means below 30%; further: 0% is about no effect
Target sequence (Q8NER1 whole entry, looked up): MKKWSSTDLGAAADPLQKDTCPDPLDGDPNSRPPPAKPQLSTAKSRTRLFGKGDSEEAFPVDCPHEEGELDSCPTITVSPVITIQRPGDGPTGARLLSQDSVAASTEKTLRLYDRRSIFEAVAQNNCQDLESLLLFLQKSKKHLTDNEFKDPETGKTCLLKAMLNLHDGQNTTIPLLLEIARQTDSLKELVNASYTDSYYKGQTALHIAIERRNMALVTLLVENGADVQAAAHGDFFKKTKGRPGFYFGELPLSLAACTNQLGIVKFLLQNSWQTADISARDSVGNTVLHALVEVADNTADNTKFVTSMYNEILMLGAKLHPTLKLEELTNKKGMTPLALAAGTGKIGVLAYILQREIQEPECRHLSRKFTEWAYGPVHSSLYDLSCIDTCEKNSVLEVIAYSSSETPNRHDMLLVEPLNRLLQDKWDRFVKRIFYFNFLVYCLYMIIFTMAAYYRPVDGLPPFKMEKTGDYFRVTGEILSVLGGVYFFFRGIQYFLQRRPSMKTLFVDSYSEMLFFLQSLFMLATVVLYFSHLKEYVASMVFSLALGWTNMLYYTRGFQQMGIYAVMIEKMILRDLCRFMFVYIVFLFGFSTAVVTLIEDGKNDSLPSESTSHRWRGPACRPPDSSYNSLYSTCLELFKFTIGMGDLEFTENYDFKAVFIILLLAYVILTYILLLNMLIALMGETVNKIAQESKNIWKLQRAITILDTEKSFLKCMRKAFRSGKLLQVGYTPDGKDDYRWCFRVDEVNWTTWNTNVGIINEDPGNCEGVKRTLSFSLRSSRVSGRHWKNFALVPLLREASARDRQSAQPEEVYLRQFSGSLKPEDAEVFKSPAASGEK
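Fluo-8 calcium influx in TRPV1-expressing cells, kinetic read (ex 480/em 520 nm). Compound added and read 3 min for agonist activity, followed by capsaicin at EC20 final and 2 min further read for enhancement.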
ClpP mod: qHTS Assay for Activators of ClpP; ATP-dependent Clp protease proteolytic subunit (Bacillus subtilis (strain 168)), P80244; purified B. subtilis ClpP, FRET peptide cleavage, 20 min; Potency, µM (top dose mostly 57.5 µM), for inactives: top-dose activity change, negative = active; actives 1.9% (n = 340,000); AID 651965, 2013; active = well fitted falling curve with a large enough effect; inconclusive = small, poorly fitted or top-dose-only effect; inactive = no such curve, though single readings can be large or run the other way; further: potency means the concentration at half of the fitted maximal effect; the source files actives as falling curves though it sought activators and does not explain the sign; nearly all actives have a fitted effect of over 65% in size; many hits overshoot -100%
Target sequence (P80244 whole entry, looked up): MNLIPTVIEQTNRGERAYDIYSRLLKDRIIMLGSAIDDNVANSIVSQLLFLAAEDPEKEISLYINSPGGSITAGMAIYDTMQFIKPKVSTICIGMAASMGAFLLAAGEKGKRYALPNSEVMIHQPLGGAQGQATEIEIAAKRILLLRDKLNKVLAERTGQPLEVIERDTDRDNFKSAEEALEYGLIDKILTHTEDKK
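Purified B. subtilis ClpP, 10 microg/mL final in Tris/HCl pH8 with KCl, BSA, glycerol and Tween-20, cleaved an Abz/nitrotyrosine-quenched decapeptide. Fluorescence (ex 320, em 430) was read at 0 and 20 min at room temperature. Delta was normalized to 5.8 microM ADEP and DMSO/no-enzyme controls.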
CtBP-E1A inh: qHTS Assay for Inhibitors of the CtBP/E1A Interaction | CtBP / adenovirus E1A interaction (AlphaScreen) | AlphaScreen GST-E1A/His-CtBP binding, 1536-well; hits give low values; control for the full effect not named in the record | activity change, % (concentration not given with the values) | actives 0.49% (n = 340,000) | AID 651724, 2012; in the data active means activity change below about -65%; inconclusive means about -30% to -65%; inactive means above about -30%; further: on the % scale 0 is the no-effect control and ±100 the full control effect
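GST-E1A and His-tagged CtBP (125 nM each as 5X stock) were preincubated with pin-transferred compound for 2 h at 37 °C in the dark, then glutathione donor and nickel acceptor beads were added for 1 h before AlphaScreen reading.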
gsp antagonist: qHTS for Antagonists of gsp, the Etiologic Mutation Responsible for Fibrous Dysplasia/McCune-Albright Syndrome: qHTS; gsp-mutant cells, cAMP HTRF, 30 min; control for the full effect not named in the record; Potency, µM (doses to about 76.9 µM), for the others: at the highest dose activity change, negative = inhibition, actives largely listed as inhibitors; actives 0.4% (n = 340,000); active = falling curve of any shape with a large fitted effect; inconclusive = falling curve, mostly with a smaller effect; inactive = flat or rising curve; cell line not stated here;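 further: intracellular cAMP measured with PDE inhibitor Ro 20-1724 present during compound exposure; potency means the concentration at half of the fitted maximal effect; on the % scale 0 is the no-effect control and ±100 the full control effect; nearly all actives have a fitted effect of over 65% in size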
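Cells in G418 medium, seeded 16-24 h, 37C; buffer exchange to DPBS + 1 mM CaCl2, 0.5 mM MgCl2, 0.05% BSA; cpds in DMSO + […] (300 uM stock), 30 min 37C; HTRF cAMP detection.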
gsp agonist: qHTS for Agonist of gsp, the Etiologic Mutation Responsible for Fibrous Dysplasia/McCune-Albright Syndrome: qHTS; gsp mutant cells, cAMP HTRF, 30 min; control for the full effect not named in the record; Potency, µM (top dose mostly 76.9 µM), for inactives: top-dose activation (cAMP increase), usual class: activators; actives 0.13% (n = 340,000); AID 624287, 2012; active = well fitted activation curve with a large enough effect; inconclusive = small, poorly fitted or top-dose-only effect, or another doubt; inactive = no such curve, though single readings can be large or run the other way; cell line not stated here;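 further: phosphodiesterase inhibitor Ro 20-1724 added with compounds to block cAMP breakdown; potency means the concentration at half of the fitted maximal effect; nearly all actives have a fitted effect of over 60% in size; about a fifth of the inactives were tested at one dose only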
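Cells stably selected in G418 were plated at 2000/well, grown 16-24 hr, then given compounds in DMSO with the PDE inhibitor […] (300 uM solution added) for 30 min at 37C; cAMP was read by HTRF.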
Active calls of the source: *; u = inconclusive; x = not tested or not shown; [ ] = another dose, or the depositor's remark.

SMILES	Sfp PPTase inh	Menin MLL FP FL	TRPV1 potentiator	ClpP mod	CtBP-E1A inh	gsp antagonist	gsp agonist
O=S(=O)(Nc1ccc2nc(N3CCOCC3)sc2c1)c1ccc(Cl)cc1	x	x	9	2.4%	x	-17%	13%
CCCc1nnc(SCC(=O)N2CCCCC2)n1CCCOC	-6%	2.6	12	-0.5%	7	-1%	u
COc1cccc(CNCC(O)(c2ccc(Cl)cc2)c2ccc(Cl)cc2)c1	-22%	-0.2	7	0.7%	19	-18%	u
Cc1ccc(NC(=O)COC(=O)c2ccc(Br)o2)cc1S(=O)(=O)N1CCCCC1	x	x	-7	-1.1%	-16	-2%	-5%
COc1ccc(C=O)cc1COc1ccc(C)cc1[N+](=O)[O-]	-8%	-2.4	-8	-0.8%	-4	22%	-12%
CCOc1ccc(-c2nc[nH]c2[N+](=O)[O-])cc1	18%	0.3	-2	x	-11	4%	-38%[inhibitor]
CC(Oc1ccc(Br)cc1)C(=O)Nc1ccc(N2CCOCC2)cc1N1CCOCC1 (stereo not given)	x	x	3	1.8%	7	-6%	u
N#CCOc1nc(N2CCCC2)nc(N2CCCC2)n1	7%	5.0	-11	1.1%	0	7%	-28%
Cc1ccccc1C(=O)N1CCN(c2ccc(NC(=S)NC(=O)c3ccco3)cc2)CC1	12%	4.3	5	-2.4%	x	1%	5%
Cc1ccc(C)c(NC(=O)Cn2c(=O)n(-c3ccc(CC(=O)NCC4CCCO4)cc3)c(=O)c3ccccc32)c1 (stereo not given)	-17%	10	7	-3.6%	x	x	x
[N-]=[N+]=NC1CC(CO)OC1n1ccc(=O)[nH]c1=O (stereo not given)	19%	x	4	-0.6%	x	-2%	2%
CCN1C(=O)[C@H]2[C@@H](c3ccc(Cl)cc3)N3C(=O)CN(CCOC)C(=O)[C@@]3(Cc3ccccc3)[C@H]2C1=O	8%	0.7	18	-0.8%	3	6%	u
COC(=O)CCNC(=O)Cc1c(C)n(C(=O)c2ccc(Cl)cc2)c2ccc(OC)cc12	17%	3.0	-2	x	6	u	15%[15.4 µM]
O=C(c1cc(-c2ccccc2)on1)N1CCCCCC1	0%	-0.1	-13	x	10	5%	-23%[15.4 µM]
Cc1ccc(-c2nc(CS(=O)CC(=O)NCCN3CCCCCC3)c(C)o2)cc1 (stereo not given)	3%	x	3	-9.8%	x	-14%	3%
Cc1cc(-n2c(C)cc(C(=O)CSc3nc4ccccc4c(=O)n3Cc3ccco3)c2C)no1	13%	-1.7	-13	0.0%	-1	-5%	-7%
CCOc1ccccc1NC(=O)CCC(=O)Nc1ccc2nc(N3CCN(C)CC3)cc(C)c2c1	-6%	0.0	3	25µM*	-2	-10%	1%
COCCCN(C(=O)CCOc1ccc(C)cc1)c1c(N)n(Cc2ccccc2)c(=O)[nH]c1=O	x	x	4	-4.7%	-18	0%	0%
O=C(CC1OC(=O)c2ccccc21)Nc1cc(Cl)ccc1N1CCOCC1 (stereo not given)	x	x	x	-0.1%	-12	-12%	-41%[inhibitor]
CCOc1ccc(N(CC)C(=O)CCNC(=O)Cn2ccc3ccccc3c2=O)cc1	9%	-0.2	4	-15%	3	-9%	-13%
COc1ccc(C2NC(=O)C(C)S2)cc1 (stereo not given)	8%	0.1	u	0.6%	6	-2%	-17%
C#CCSc1ncc(-c2ccccc2)cn1	-29%	-0.1	-9	x	-21	x	-16%[15.4 µM]
O=C(c1ccc2ccccc2c1)C1CCCN(C(=O)c2noc3c2CCCC3)C1 (stereo not given)	u	1.8	-7	-7.1%	-1	u	-16%
C[C@@H]1CN([C@H](C)CO)C(=O)Cc2cc(NC(=O)Nc3ccccc3)ccc2O[C@@H]1CN(C)C(=O)Nc1ccc2c(c1)OCO2	x	x	x	-3.7%	-29	-3%	x
CCCCCCCc1c(C#N)c(N)[nH]c(=S)c1C#N	-3%	-0.5	-1	0.8%	2	u	13%[15.4 µM]
SMILES	Sfp PPTase inh	Menin MLL FP FL	TRPV1 potentiator	ClpP mod	CtBP-E1A inh	gsp antagonist	gsp agonist
C=CCNC(=O)c1cccc2c1C(=O)c1ccc(N3CCCC3)cc1S2(=O)=O	x	x	x	0.2%	x	-14%	-86%[inhibitor]
CC1(C)CC(=O)C(c2c[nH]c3ccccc23)C(=O)C1	79µM*	-0.9	8	x	10	-2%	-21%
CNc1ccccc1C(C)(C)c1ccn[nH]1	-8%	u	1	x	3	12%	-9%
COc1ccc(CN2C3CCCC2CC(NC(=O)/C=C/c2ccccc2)C3)cc1 (stereo not given)	10%	0.1	-9	x	6	0%	u
O=C(OC1CCOC1=O)c1cc(-c2cccs2)nc2ccccc12 (stereo not given)	-2%	4.6	-14	x	-5	-14%	8%[15.4 µM]
C#CCN1C(=O)S/C(=C/c2cc(C)n(CC)c2C)C1=O	-6%	u	28	-0.4%	-12	10%	-36%[inhibitor]
CCN(Cc1ccccc1)S(=O)(=O)c1ccc(F)cc1	3%	0.5	-16	-1.7%	7	6%	3%
Cc1ccc(NC(=O)CCNS(=O)(=O)c2ccc(Br)cc2)cc1S(=O)(=O)N1CCOCC1	x	x	6	-0.2%	-1	-4%	-14%
CCN(C(=O)COC(=O)c1cc([N+](=O)[O-])ccc1N1CCCCC1)C1CCS(=O)(=O)C1 (stereo not given)	10%	0.9	2	x	0	x	-14%[15.4 µM]
CC(=O)c1cccc(NC(=S)Nc2cccc3ccccc23)c1	-15%	1.9	-2	4.2%	-6	3%	27%
Cc1ccc(CNc2ccc3c(c2)ncn3C)cc1	-5%	-1.8	3	25µM*	-3	-9%	21%
CC(=O)NCCOc1c(C)cc(S(N)(=O)=O)cc1C	16%	9.2	-4	0.8%	-2	11%	12%
NC(=O)NC(=O)COC(=O)/C=C/c1cccc(Br)c1	10%	-0.7	-2	-2.5%	x	5%	-1%
NCCc1nnc(SCc2ccccc2)o1	8%	0.7	-11	-1.5%	2	-11%	15%
COc1ccccc1N1CCN(C(=O)c2cc(-c3ccc(Br)cc3)on2)CC1	-12%	4.5	x	-5.6%	-5	3%	-38%[inhibitor]
O=C(Nc1cc(S(=O)(=O)N2CCOCC2)ccc1O)c1ccco1	56µM*	2.4	12	-4.3%	-7	-5%	1%
COC1CC(C)NC(=S)N1 (stereo not given)	u	-5.6	4	-0.4%	19	23%	-2%[15.4 µM]
O=C(c1cnccn1)N1CCN(c2ccccc2)CC1	11%	2.9	1	0.3%	5	11%	-21%
CCOc1ccc(N(CC(=O)OC)S(=O)(=O)c2c(C)noc2C)cc1	2%	2.7	x	2.4%	6	-7%	2%
O=c1[nH]c(CSc2ncc(-c3ccc(F)cc3)n2Cc2ccco2)nc2ccccc12	u	-2.0	-2	2.5%	-19	-26%	21%
O=C(CCC1CCCN(c2ncccn2)C1)NCc1ccc(F)c(F)c1 (stereo not given)	3%	-0.2	-19	-15%	x	-4%	0%
CC(=O)OC(C)(C)C#CCN1CCCC1	20%	1.2	u	-1.0%	6	6%	20%
O=C(N/N=C/c1ccc2c(c1)OCO2)C1COc2ccccc2O1 (stereo not given)	17%	-0.6	-14	-9.0%	-4	-1%	-9%
CC(C)CC(=O)Nc1nc2ccc(S(C)(=O)=O)cc2s1	20µM*	-4.7	10	-3.6%	-16	8%	-25%
CCN(C(=O)c1ccc(S(=O)(=O)N2CCOCC2)cc1)C1CCS(=O)(=O)C1 (stereo not given)	x	x	-2	-1.7%	7	13%	18%
SMILES	Sfp PPTase inh	Menin MLL FP FL	TRPV1 potentiator	ClpP mod	CtBP-E1A inh	gsp antagonist	gsp agonist
N#CCc1ccc(OC(=O)c2cccnc2)cc1	12%	8.0	-4	x	8	6%	13%
CCn1ccnc1CN1CCC(CO)(CCOc2ccccc2)CC1	0%	-2.2	6	x	-3	-6%	-6%[15.4 µM]
CCCn1c(N)c(C(=O)CSc2nnc(Cc3ccccc3)o2)c(=O)n(C)c1=O	7%	2.3	2	-0.6%	-4	u	13%
COc1ccc(OC)c(NC(=O)CSc2ccc(-c3cccnc3)nn2)c1	5%	x	-5	1.8%	-4	3%	8%
Cc1ccc(C(=O)OCC(=O)c2c[nH]c3ccccc23)cc1	13%	1.1	9	x	8	4%	-25%
Cc1cccc(Oc2nc3ccccn3c(=O)c2/C=C(\C#N)C(=O)NC2CCS(=O)(=O)C2)c1C (stereo not given)	6%	-0.8	-6	x	-24	0%	u
COc1ccc(NC(=O)C(=O)NCC2CCCN2S(=O)(=O)c2ccc(C)cc2)cc1 (stereo not given)	x	x	13	x	-6	-1%	9%[15.4 µM]
O=C(c1ccco1)N1CCN(Cc2cccc(C(F)(F)F)c2)CC1	12%	6.1	-8	0.4%	5	2%	-3%
CCOc1ccc(C(=O)NCC(=O)OCc2cc(C(C)=O)ccc2OC)cc1	-7%	1.6	-15	x	-12	7%	13%[15.4 µM]
CCC(=O)c1ccc(N2CCN(S(=O)(=O)c3ccccc3)CC2)c(F)c1	10%	-0.5	5	x	9	12%	27%
COc1ccc(C(=O)Nc2nc(C)c(C)s2)cc1OC	8%	0.6	-4	-1.6%	-4	-10%[15.4 µM]	u
CC(C)NC(=O)NC(=O)COC(=O)c1ccc([N+](=O)[O-])cc1Cl	-1%	-3.3	-11	1.9%	3	9%	12%

Two of the compounds above, comma-delimited.
SMILES,Sfp PPTase inh,Menin MLL FP FL,TRPV1 potentiator,ClpP mod,CtBP-E1A inh,gsp antagonist,gsp agonist
CCCn1c(N)c(C(=O)CSc2nnc(Cc3ccccc3)o2)c(=O)n(C)c1=O,7%,2.3,2,-0.6%,-4,u,13%
COc1ccc(OC)c(NC(=O)CSc2ccc(-c3cccnc3)nn2)c1,5%,x,-5,1.8%,-4,3%,8%
